YopH inh – YopH tyrosine phosphatase inhibitors, primary screen, biochemical, fluorescence Ex485/Em525; YopH tyrosine phosphatase [Yersinia enterocolitica]; inhibition, %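 (about 10 µM by stock and volumes)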; actives 0.16% (n = 140,000); AID 898, 2007;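 active means inhibition of 50% or more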;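 further: controls were vehicle for no effect and minimum signal wells for full effect; inactives centre near -20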
Mtb H37Rv – M. tuberculosis H37Rv growth inhibitors, H37Rv strain (AID 1626); M. tuberculosis H37Rv growth inhibition; higher % means a stronger effect; inhibition, % at 10 µM, or IC50 in µM where a hit was titrated; actives 0.95% (n = 220,000);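 active means confirmed in a dose series; inconclusive means inhibition above 80% but not taken into the dose series; inactive means below 80% or under 30% at every dose of the series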;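 further: bacteria incubated seven days before Alamar blue readout; 0% = bacteria only wells and 100% = bacteria with antibiotic wells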
Arbovirus inh – antivirals against arbovirus infection, primary screen, cell-based, full library, 10K replicate subset. actives 0.37% (n = 200,000). inhibition, % at 10 µM. arbovirus infection cell-based antiviral screen;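 active means inhibition from about 30%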;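 further: bluetongue infection of BSR cells; cell survival read as ATP light after 72 h; 0% = infected wells without compound and 100% = uninfected wells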
RecA splice inh – Mtb RecA intein splicing inhibitors, primary screen, biochemical, fluorescence, HTS; inhibition, %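 (about 9 µM by stock and volumes)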; AID 2221, 2009; Protein RecA (Mycobacterium tuberculosis (strain ATCC 25618 / H37Rv)), P9WHJ3; cell-free RecA intein splicing; actives 0.75% (n = 290,000); in the data active means inhibition above about 30%; inconclusive means no clear call, values can overlap the other calls;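 further: 0% = vehicle wells and 100% = reference inhibitor control wells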
Target sequence (P9WHJ3 whole entry, looked up, canonical isoform): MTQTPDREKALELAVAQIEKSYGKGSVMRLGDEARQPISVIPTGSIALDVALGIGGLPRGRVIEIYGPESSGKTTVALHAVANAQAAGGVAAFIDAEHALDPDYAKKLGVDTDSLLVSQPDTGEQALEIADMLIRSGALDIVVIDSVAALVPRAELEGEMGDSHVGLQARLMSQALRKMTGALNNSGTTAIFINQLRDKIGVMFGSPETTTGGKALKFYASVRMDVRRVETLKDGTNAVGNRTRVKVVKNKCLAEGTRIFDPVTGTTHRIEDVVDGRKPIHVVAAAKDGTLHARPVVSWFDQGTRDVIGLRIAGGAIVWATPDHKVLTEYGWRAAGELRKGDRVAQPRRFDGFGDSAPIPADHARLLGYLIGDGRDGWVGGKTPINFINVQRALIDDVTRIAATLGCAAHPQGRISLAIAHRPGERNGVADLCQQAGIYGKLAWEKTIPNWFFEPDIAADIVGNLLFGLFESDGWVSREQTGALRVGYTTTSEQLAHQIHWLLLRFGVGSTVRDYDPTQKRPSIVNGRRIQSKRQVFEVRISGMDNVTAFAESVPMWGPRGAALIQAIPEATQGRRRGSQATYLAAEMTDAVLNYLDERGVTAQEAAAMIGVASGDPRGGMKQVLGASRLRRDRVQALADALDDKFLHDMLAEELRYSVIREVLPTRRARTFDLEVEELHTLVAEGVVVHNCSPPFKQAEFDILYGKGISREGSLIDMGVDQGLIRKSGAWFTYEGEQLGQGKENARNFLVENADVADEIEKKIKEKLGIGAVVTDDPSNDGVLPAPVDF
Mtb bLac sens – beta-lactam sensitization of Mtb H37Rv, H37Rv | actives 0.27% (n = 330,000) | inhibition, % at 25 µM | M. tuberculosis H37Rv growth with meropenem, percent inhibition; hits of this screen are not shown here;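 active means about 74% or more and at least 40 points above the plate without the antibiotic, then above 30% in a dose series; inconclusive means first-round hits that could not be retested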;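 further: growth measured after seven days incubation then overnight dye step; 0% = bacteria only wells and 100% = bacteria with antibiotic; twin plates without the antibiotic show which effects depend on it; some results filed as inactive read as strong as hits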
Arbovirus inh repeat – also measured in Arbovirus inh; calls as there; inhibition, %; measured here: 10K subset replicate screen; many hits read low in the repeat;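 first of two repeat runs on a subset; 0% = infected and 100% = uninfected wells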
* marks the source's active call; other numbers are inactive results; u = inconclusive; x = no result given; & = joins results of further samples. The list is partial, so the mix of outcomes need not match the whole.

SMILES | YopH inh | Mtb H37Rv | Arbovirus inh | RecA splice inh | Mtb bLac sens | others
COc1ccccc1NC(=O)c1ccc(N2CC3CC(C2)c2cccc(=O)n2C3)c(NC(=O)c2ccncc2)c1 (stereo not given) | x | x | x | 4.0 | -9
O=C(COC(=O)c1sc2cc(F)ccc2c1Cl)Nc1ncc(Cl)cc1Cl | -3 | 2% | 5 | 0.2 | 0
COc1ccc(CCNC(=O)c2ccn[nH]2)cc1OC | -27 | -5% | 6 | -1.3 | 23
CN1CCN(C(=O)Cn2c(=O)oc3cc(S(=O)(=O)NCc4ccccc4)ccc32)CC1 | -26 | 1% | -11 | x | 1
O=C(Nc1cc(S(=O)(=O)N2CCCC2)ccc1OCC(F)(F)F)c1ccccc1F | -25 | -4% | -4 | -2.5 | 2
COc1ccc(C(=O)NCCN2CCN(C(=O)c3ccc(OC)cc3)CC2)cc1 | x | x | x | -2.0 | -6
CCCCCCn1cc(C(=O)O)c(=O)c2ccccc21 | -27 | 1% | 0 | -0.8 | 39
OCCCCC#Cc1c(-c2ccsc2)sc2ccccc12 | x | x | x | 21 | 84
CCOC(=O)N1CCN(C(=O)CNC(=O)c2ccc(Br)o2)CC1 | x | x | x | -0.7 | 6
COc1ccc(-n2c(SCC(=O)N3CCOCC3)nc(O)cc2=O)cc1 | x | x | x | -4.0 | -3
COc1ccc(NS(=O)(=O)c2ccc3c(c2)NC(=O)CCS3)cc1Cl | x | x | x | -0.4 | -5
CCN1CCN(c2ccc(NC(=O)Cc3ccccc3)cc2)CC1 | 40 | 4% | -3 | 0.3 | 1
CCc1ccc2c(c1)cc(CN(C(=S)Nc1cccc(C)c1)C1CC1)c1nnnn12 | -2 | -1% | -13 | 0.5 | 62
O=C(C1CC1)N1N=C2CCCCC2C1(O)C(F)(F)F (stereo not given) | x | -5% | 1 | x | 0
COc1ccc(C(=O)C2CCCN(Cc3cccn3-c3ccccn3)C2)cc1F (stereo not given) | x | -6% | -23 | 3.5 | 2
COc1ccc(CN2CC(=O)N(c3ccc(C)c(C)c3)C2=S)cc1OC | x | 8% | 19 | -1.3 | 1
COc1ccc(NC(=O)CC2C(=O)N(Cc3cccs3)C(=S)N2C(C)C)cc1 (stereo not given) | x | 2% | 3 | -0.1 | 1
COc1c(S(=O)(=O)NCCCN2CCOCC2)ccc(Cl)c1Cl | x | -9% | x | -3.0 | -9
O=C(CCC(=O)N1CCOc2ccccc21)NCCc1ccccc1 | x | x | x | -1.4 | -8
CCOC(=O)c1sc(N/N=C/c2cc(Br)c(O)c(OC)c2)nc1C | x | x | x | -4.7 | 46
Nn1cnc2scc(-c3ccc(Cl)cc3)c2c1=O | x | x | x | -2.2 | 4
COc1ccc(-c2nnc(SCC(=O)Nc3nc4ccccc4s3)n2C)cc1 | 13 | x | 2 | 2.6 | x
COc1ccc(NC(=O)Nc2cccc(NC(C)=O)c2)c(OC)c1 | x | 24% | -2 | -0.5 | 8
Cc1nc(SCC(=O)Nc2c(C)nn(C)c2C)c2cnn(-c3ccccc3)c2n1 | -8 | 2% | 13 | -0.1 | -5
CCC(C)OC(=O)C1=C(C)OC23OC(N)=C(C#N)C12C(=O)c1ccccc13 (stereo not given) | -7 | -16% | -7 | 12 | -7
CC(NS(=O)(=O)c1ccc(F)cc1)C(=O)Nc1ccc2c(c1)OCCO2 (stereo not given) | x | x | x | -4.1 | 1
Cc1ccc(CN(c2ccc(C(=O)NCC3CCCO3)cc2)S(C)(=O)=O)cc1 (stereo not given) | x | -2% | 1 | -6.2 | -2
CC(=O)c1cccc(NC(=O)CN(C)S(=O)(=O)c2ccc3c(c2)CC(C)N3C(C)=O)c1 (stereo not given) | x | x | x | -1.1 | 1
CSc1ccccc1NC(=O)Nc1cccc(F)c1 | x | 1% | 7 | 1.2 | -1
CCC1Nc2ncnc(N3CCCCC3)c2N(Cc2ccccc2)C1=O (stereo not given) | x | x | x | 0.4 | -16

Pulled by structure from the list above, two records:
SMILES | YopH inh | Mtb H37Rv | Arbovirus inh | RecA splice inh | Mtb bLac sens | others
Cc1nc(SCC(=O)Nc2c(C)nn(C)c2C)c2cnn(-c3ccccc3)c2n1 | -8 | 2% | 13 | -0.1 | -5
CCOC(=O)c1sc(N/N=C/c2cc(Br)c(O)c(OC)c2)nc1C | x | x | x | -4.7 | 46

By substructure, the compounds so far containing two or more sulfur atoms (4)
SMILES | YopH inh | Mtb H37Rv | Arbovirus inh | RecA splice inh | Mtb bLac sens | others
OCCCCC#Cc1c(-c2ccsc2)sc2ccccc12 | x | x | x | 21 | 84
COc1ccc(NS(=O)(=O)c2ccc3c(c2)NC(=O)CCS3)cc1Cl | x | x | x | -0.4 | -5
COc1ccc(NC(=O)CC2C(=O)N(Cc3cccs3)C(=S)N2C(C)C)cc1 (stereo not given) | x | 2% | 3 | -0.1 | 1
COc1ccc(-c2nnc(SCC(=O)Nc3nc4ccccc4s3)n2C)cc1 | 13 | x | 2 | 2.6 | x

The main list resumes with the three entries that preceded the break.
SMILES | YopH inh | Mtb H37Rv | Arbovirus inh | RecA splice inh | Mtb bLac sens | others
CC(=O)c1cccc(NC(=O)CN(C)S(=O)(=O)c2ccc3c(c2)CC(C)N3C(C)=O)c1 (stereo not given) | x | x | x | -1.1 | 1
CSc1ccccc1NC(=O)Nc1cccc(F)c1 | x | 1% | 7 | 1.2 | -1
CCC1Nc2ncnc(N3CCCCC3)c2N(Cc2ccccc2)C1=O (stereo not given) | x | x | x | 0.4 | -16
COC(=O)c1ccc(NC(=O)CCN2CCOCC2)cc1 | x | x | x | 2.0 | -7
COc1ccccc1-c1nc(SCC(=O)N2CCOCC2)n[nH]1 | x | x | x | 1.3 | -6
Cc1ccc(C)c2[nH]c(=O)c(CN(CCN3CCOCC3)Cc3nnnn3CC3CCCO3)cc12 (stereo not given) | -39 | 1% | 7 | -2.6 | 1
O=c1oc2ccccc2c(Nc2ccccc2O)c1[N+](=O)[O-] | x | 58% | -27 | -9.9 | 97
CCOc1ccc(N(CC(=O)NC2CC3CCC2C3)S(=O)(=O)c2ccccc2)cc1 (stereo not given) | x | x | x | 3.9 | 3
CC(C)CN1CCC(=O)N(CCO)CC1 | x | x | x | -3.8 | -9
Cc1cccc(OCC(O)Cn2ccnc2C)c1 (stereo not given) | x | x | x | 1.8 | 4
FC(F)Sc1ccc(-n2cc(-c3ccccc3)[n+]3c2CCC3)cc1 | -24 | 0% | -4 | 0.0 | 1
O=C(c1cccc(NS(=O)(=O)c2ccc(F)c(F)c2)c1)N1CCN(Cc2ccccc2)CC1 | -37 | 0% | 3 | 1.6 | 3
Cc1cc(NC(=O)c2ccc(Cl)cc2Cl)n(CCC#N)n1 | x | -1% | 8 | 0.7 | 2
Oc1c(C(c2ccccc2Cl)N2CCCC2)ccc2cccnc12 (stereo not given) | x | 2% | -30 | 5.4 | 99
CCC(Sc1nc2ccccc2c(=O)[nH]1)C(=O)O (stereo not given) | -35 | -5% | 4 | 2.5 | -1
Cc1nc2ccccc2nc1CSc1nncs1 | 1 | -2% | 6 | 2.0 | 5
OC1/C(=C/c2ccc(F)cc2)N2CCC1CC2 (stereo not given) | -42 | -1% | 7 | -0.3 | 1
COc1ccc(OC)c(C2CC(c3ccccc3)=NN2C(=S)Nc2ccccc2)c1 (stereo not given) | x | 4% | x | -1.0 | 44
CC(=O)Oc1ccc(-c2csc(Nc3ccc(S(N)(=O)=O)cc3)n2)cc1 | x | 0% | -12 | 7.8 | -4
O=C(Cc1c(F)cccc1Cl)NCCc1c[nH]c2ccccc12 | x | x | x | 0.3 | 6
COc1ccc(N2CCN(C(=O)C3CCN(C(=O)c4ccc([N+](=O)[O-])cc4)CC3)CC2)cc1 | x | x | x | -3.3 | u
O=c1[nH]cnc2c1sc(=S)n2-c1ccccc1 | -45 | -5% | 1 | -0.6 | 2 | Arbovirus inh repeat=6
Cc1cccc(NC(=O)CSCc2cc(=O)n3ccsc3n2)c1C | x | x | x | 0.7 | -2
O=C(CSc1ncn[nH]1)N1CCN(c2nnc(-c3ccccc3)c3ccccc23)CC1 | -24 | -1% | 10 | 0.6 | 7
O=C(CN1CCCC1)Nc1ccc(NC(=O)Nc2ccccc2)cc1 | -38 | 1% | -6 | -1.1 | -14
COc1ccc(C2C(C(=O)OCC(=O)Nc3ccc(C)cc3)CCC(=O)N2c2ccc(OC)cc2)cc1 (stereo not given) | -16 | -16% | 5 | 3.1 | 2
O=C(COc1ccc(Cl)cc1)N1CCN(S(=O)(=O)c2ccc(Cl)cc2)CC1 | -20 | -6% | 4 | -0.8 | -8
CC(C)Sc1nc(SCC(=O)NCc2ccco2)c2c3c(sc2n1)COC(C)(C)C3 | -26 | -4% | 16 | 4.2 | -1 | Arbovirus inh repeat=-2
COc1ccccc1CNC(=O)CCn1c(=O)sc2ccccc21 | -48 | 0% | -2 | 0.3 | -1
COCCCn1cc(C(=O)c2cc(OC)ccc2OCC(=O)N2CCCCC2C)cc(C#N)c1=O (stereo not given) | x | -3% | 18 | -0.6 | -1
O=C1CC(c2ccc(OCCCCCOc3ccc(C4CC(=O)NC4=O)cc3)cc2)C(=O)N1 (stereo not given) | x | -7% | 6 | -0.1 | 52
CCCCCOC(=O)C1=C(C)NC(=O)NC1c1ccc([N+](=O)[O-])cc1 (stereo not given) | x | x | x | 2.1 | -1
CC1(C)CC(=O)c2cc(OCC(=O)NCCN3CCCc4ccccc43)ccc2O1 | -28 | -6% | -6 | x | -4
O=C(N=Nc1c(O)[nH]c2ccc(Cl)cc12)c1cc(-c2cccs2)nc2ccccc12 | 23 | -4% | -10 | 0.4 | 10
COc1ccc(S(=O)(=O)Nc2cccc(C)n2)c2ccccc12 | -44 | 0% | 9 | -0.5 | 6
COC(=O)N1CN(C(=O)OC)CN(C(=O)OC)C1 | -45 | -20% | 12 | -0.2 | -2
COc1ccc(S(=O)(=O)N(C)CC(=O)NC2CCCC2)cc1OC | x | x | x | -0.8 | 2
O=C(c1cc(-c2ccc3c(c2)OCO3)on1)N1CCCCC1 | x | x | x | -0.8 | 2
O=C(c1ccco1)N1CCN(C(=O)C2CCCO2)CC1 (stereo not given) | -27 | -2% | -5 | 4.9 | -4
O=C(CCc1ccccc1)N=C1SC2CS(=O)(=O)CC2N1c1ccccc1F (stereo not given) | x | x | x | 0.1 | -6
CC(C)(C)C(=O)Nc1ccc(F)cc1[N+](=O)[O-] | x | -2% | x | -3.4 | 0
CCOC(=O)C1CCCN(C(=O)Cn2nc(C)c3c(C)n(-c4ccccc4)nc3c2=O)C1 (stereo not given) | x | x | x | -1.1 | -6
CCNC(=S)NNC(=O)Cn1c(=O)c2c(ncn2CCOC)n(Cc2ccccc2)c1=O | x | x | x | -0.6 | -9
CCn1c(N)[n+](CC(=O)Nc2ccc(SC(F)F)cc2)c2ccccc21 | x | 6% | x | 2.4 | -2
Cn1cnnc1SCC(=O)Nc1ncc(C(F)(F)F)cc1Cl | x | 3% | 10 | 1.0 | -1
CC(C)CCOP(=O)(c1ccc(N(C)C)cc1)C(O)c1ccc(Cl)cc1Cl (stereo not given) | x | x | x | 22 | 9
O=C(/C=N/O)NCCN1CCCCC1 | -29 | -1% | 9 | 1.1 | -8
CC(=O)NC(=S)Nc1ccc(NC(=O)COc2ccc(Cl)cc2Cl)cc1 | -17 | 48% | -3 | -1.7 | 54
Cc1nn(C)c(Cl)c1/C=C/C(=O)O | x | 4% | 5 | -2.4 | -8
Oc1ccc(NC(=S)Nc2ccccc2)cc1 | -16 | -13%&0% | -5 | -2.9&-5.6 | -5&-3
O=C(c1ccccc1-c1nc2ccccc2[nH]1)N1CCOCC1 | 0 | -6% | 1 | 3.6 | 0
CCC(C)(C)NC(=O)C(c1sccc1C)N(Cc1ccco1)C(=O)c1csnn1 (stereo not given) | x | x | x | 2.7 | 0
CN(C)CC(=O)Nc1ccc(Oc2ccc(Cl)cc2)cc1 | x | 6% | -15 | 0.4 | 5
O=C(NC1CC1)C1=C[C@@H](c2ccc(Br)cc2)C[C@@H](OCc2ccc(CO)cc2)O1 | x | -8% | x | 5.2 | -1
COc1ccccc1NC(=O)NCC(=O)Nc1ccc(F)c(F)c1 | -42 | 7% | 11 | 1.5 | -10
O=C1NC2=C(C(=O)OC2)C(c2ccc(OC(F)(F)F)cc2)N1 (stereo not given) | x | -4% | x | -3.2 | 3
Cc1nc(S/C(=C/c2ccc(-c3ccc(Cl)cc3)o2)C(=O)O)n[nH]1 | 10 | 11µM* | 21 | -1.8 | 98

Assay outcomes deposited in PubChem by several laboratories.
